TSHR ag: agonists of human thyroid stimulating hormone receptor | P16473 | HEK293-CNG-TSHR cells (CNG channel as cAMP sensor), membrane potential dye, cAMP | Potency, µM (titrated, usually from 57.1 µM), without a hit: top-dose activation, most hits filed as activators | 73,000 tested, 0.48% active | AID 926; active = well fitted activation curve of enough size with the parental cells flat; inconclusive = any curve in the parental cells; inactive = parental cells flat and receptor cells flat or falling; also: potency is read from the fitted curve at half-maximal effect; % of control where 0% means no effect; weak receptor curves with flat parental cells got no call and are not listed
Target sequence (P16473 whole entry, looked up): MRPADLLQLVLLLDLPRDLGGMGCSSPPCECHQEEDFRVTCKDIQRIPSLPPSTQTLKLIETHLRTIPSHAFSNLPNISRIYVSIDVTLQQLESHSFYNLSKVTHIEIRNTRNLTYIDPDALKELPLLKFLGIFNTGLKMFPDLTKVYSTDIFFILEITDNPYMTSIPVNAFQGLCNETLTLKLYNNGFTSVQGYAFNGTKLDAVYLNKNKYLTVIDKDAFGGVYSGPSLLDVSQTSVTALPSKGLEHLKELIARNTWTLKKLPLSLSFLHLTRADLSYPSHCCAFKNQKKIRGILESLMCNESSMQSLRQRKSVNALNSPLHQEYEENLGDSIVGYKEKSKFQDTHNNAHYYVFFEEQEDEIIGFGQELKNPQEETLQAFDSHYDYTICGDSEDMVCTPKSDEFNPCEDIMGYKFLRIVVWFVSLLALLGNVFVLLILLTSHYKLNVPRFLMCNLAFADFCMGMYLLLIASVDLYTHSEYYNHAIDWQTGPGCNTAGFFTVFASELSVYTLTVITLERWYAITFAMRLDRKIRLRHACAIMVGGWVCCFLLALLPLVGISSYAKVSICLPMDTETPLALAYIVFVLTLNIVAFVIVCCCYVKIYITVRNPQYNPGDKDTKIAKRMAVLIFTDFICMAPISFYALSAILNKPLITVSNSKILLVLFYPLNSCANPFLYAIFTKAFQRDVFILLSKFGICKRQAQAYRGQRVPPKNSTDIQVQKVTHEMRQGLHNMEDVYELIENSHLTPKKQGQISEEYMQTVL
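cAMP rise detected as CNG-channel membrane depolarization by fluorescent dye (emission 590 nm), 30 min after compound, following 60 min dye loading containing 100 uM RO 20-1724 at room temperature. Cells: TSHR/CNG HEK 293, with parental CNG HEK 293 as control.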
A647 autofl: compound fluoresces in the A647 spectral region; Compound fluorescence, A647 channel (570/671 nm), Tris buffer; max dye-equivalent concentration, M; 59,000 tested, under 10 active; active means above 1 µM dye equivalent; inconclusive means 0.1 to 1 µM; inactive means 0.1 µM or less;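 also: values scaled relative to a standard on each plate; highest value over a series up to 38 µM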
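Tris 100 mM pH 8.0; cpd + A647 stds pin-transferred; 15 min RT; CCD imager, ex 570/em 671. Output = A647-equivalent conc. per cpd conc.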
AID923: qHTS Assay for Allosteric/Competitive Inhibitors of Caspase-1: Spectroscopic Profiling in AFC Spectral Region | compound fluorescence, AFC spectral region (405/520 nm); almost no hit is shown here | Potency, µM (top dose mostly 57.5 µM), for the others: top-dose fluorescence increase, most hits filed as activators | 75,000 tested, 1.1% active | AID 923, 2007; active = well fitted activation curve with a large enough effect; inconclusive = small, poorly fitted or top-dose-only effect;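 also: potency is read from the fitted curve at half-maximal effect; 0% is about no effect; scaled to a free AFC standard on each plate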
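Compound autofluorescence profiled at 405 nm ex/520 nm em during kinetic caspase 1 run (50 nM enzyme, 5 uM Ac-WEHD-AFC, HEPES pH 7.5, 10 mM DTT). Titration up to 57 uM; baseline from regression intercept, normalized to AFC standard curve.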
A488 fluor: compound fluoresces in the A488 spectral region. compound autofluorescence, A488 spectral region, dye equivalency; active compounds read high. max dye equivalency, M. 59,000 tested, 0.1% active. AID 591; active = above 10 nM dye equivalent; inconclusive = 1 to 10 nM; inactive = 1 nM or less; about half of its hits are not listed in these tables;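 also: highest value over a series up to 38 µM; compound alone in buffer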
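Intrinsic compound fluorescence is measured in 100 mM Tris buffer at pH 8.0 following 15 min incubation at room temperature. Intensities at 480 nm excitation/540 nm emission are calibrated to an on-plate A488 concentration series, giving dye-equivalent concentrations.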
Resorufin fluor: compound fluoresces in the resorufin spectral region. Compound fluorescence, resorufin region 547/598 nm, buffer; active compounds read high. max dye-equivalent concentration, M. 59,000 tested, 0.04% active. AID 588; active = above 10 nM dye equivalent; inconclusive = 1 to 10 nM; inactive = 1 nM or less; a few of its hits are not listed in these tables; also: highest value over a series up to 38 µM
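Dye-equivalent concentration values derive from comparing each well's 547/598 nm fluorescence against resorufin standards included on every plate. Incubation was 15 min at room temperature in 100 mM Tris, pH 8.0.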
Numbers without * were called inactive; i = inactive; ? = inconclusive; nt = not tested or not shown; & = joins results of further samples; [ ] = another dose, or the depositor's remark. Not all compounds are listed. The share of hits here may be higher or lower than overall.

Sample of the layout, 3 compounds:
The line under a structure holds: TSHR ag	AID923	Resorufin fluor	A488 fluor	A647 autofl
> CCC(C)OC(=O)C1=C(C)NC(=O)CC1c1ccccc1OC (stereo not drawn)
→ ?	-2.0%	i	i	3.1e-08
> O=C(O)CC/C=C\C[C@@H]1CO[C@H](c2ccccc2Cl)O[C@@H]1c1ccccc1O
→ 15%	-1.7%	nt	nt	nt
> O=C1CCC(C(=O)Nc2cccc3ccccc23)N1 (stereo not drawn)
→ -6%	-0.4%	i	i	2.6e-08

The whole of this part, from the start:
The line under a structure holds: TSHR ag	AID923	Resorufin fluor	A488 fluor	A647 autofl
> CCC(C)OC(=O)C1=C(C)NC(=O)CC1c1ccccc1OC (stereo not drawn)
→ ?	-2.0%	i	i	3.1e-08
> O=C(O)CC/C=C\C[C@@H]1CO[C@H](c2ccccc2Cl)O[C@@H]1c1ccccc1O
→ 15%	-1.7%	nt	nt	nt
> O=C1CCC(C(=O)Nc2cccc3ccccc23)N1 (stereo not drawn)
→ -6%	-0.4%	i	i	2.6e-08
> COC(=O)c1[nH]c2cc(OC)ccc2c1NC(=O)CN1CCN(c2cccc(C)c2)C(C)C1 (stereo not drawn)
→ nt	nt	i	i	3.4e-08
> c1ccc(CN2CCN(CCCNc3ccc4nnc(-c5ccccc5)n4n3)CC2)cc1
→ -27%	-1.2%	nt	nt	nt
> Cc1ccc(Cn2c(SCC(C)C)nc3c2c(=O)[nH]c(=O)n3C)cc1
→ ?	0.3%	i	i	2.2e-09
> CC(C)=CCCC(C)N(C=O)C(C)CCC=C(C)C (stereo not drawn)
→ ?	-1.0%	nt	nt	nt
> O=C1C(=C(O)c2ccccc2)C(=O)c2ccccc21
→ -17%	-1.8%	nt	nt	nt
> N#Cc1cccc(NC(=O)N2CCC(c3nc4c(nnn4Cc4cccc(Cl)c4)c(=O)[nH]3)CC2)c1
→ -2%[11.4 µM]	-2.4%	i	i	1.1e-09
> Clc1ccc(-c2noc(CN3CCCC3)n2)cc1
→ 1%	2.1%	i	i	1.3e-08
> COC(=O)c1cccnc1-n1c(=O)c2cccnc2n(Cc2ccc(Cl)cc2)c1=O
→ 19%	0.8%	i	i	1.2e-08
> O=C(c1ccc(Cl)cc1)c1ccc(OCC(O)CN2CCOCC2)cc1 (stereo not drawn)
→ 6%	-2.8%	i	i	1.9e-08
> C/C(CCN1CCc2nc(-c3ccccc3)c(-c3ccccc3)cc2C1)=N\OC[C@@H](O)[C@@H]1O[C@@H]2OC(C)(C)O[C@@H]2[C@H]1O
→ 21%[11.4 µM]	1.2%[11.5 µM]	nt	nt	nt
> COc1ccc(CNc2nc(-c3ccc(C(=O)N(C)C)cc3)nc3ccccc23)c(OC)c1
→ 25µM*	-1.8%	i	i	1e-09
> COc1ccc(C2CC(c3ccc(Cl)cc3Cl)Nc3nc(N)nn32)cc1 (stereo not drawn)
→ -6%	-2.7%	nt	nt	nt
> O=C(Cc1cccs1)Nc1ccc(S(=O)(=O)N2CCCCC2)cc1
→ -8%	0.0%	i	i	2.1e-08
> CC(=O)NC(C1C(=O)CC(C)(C)CC1=O)(C(F)(F)F)C(F)(F)F
→ 8%	-2.3%	i	i	2.8e-08
> O=C(Nc1cccc2ncccc12)c1cccnc1
→ -8%	-2.6%	i	i	1.6e-09
> Cc1cc(Cl)c(OCCCn2cncn2)c(Br)c1
→ 45%	-1.5%	i	i	1.1e-08
> O=C1c2ccccc2-c2c1cccc2C(=O)N1CCN(C(=O)c2ccco2)CC1
→ -1%[11.4 µM]	1.2%	nt	nt	nt
> O=S(=O)(Nc1ccc(Cl)c(C(F)(F)F)c1)c1cnc[nH]1
→ -2%	-2.6%	i	i	1.3e-09
> COc1ccccc1CN1CC2(CCN(C(=O)c3cc(C(F)(F)F)cc(C(F)(F)F)c3)CC2)C1
→ ?	1.6%	i	i	4.1e-09
> O=C(CCc1nc2ccccc2[nH]1)NC1CCCCC1
→ 3%	1.0%	nt	nt	nt
> Cc1csc2ncc(C(=O)NCc3ccccn3)c(=O)n12
→ -1%[11.4 µM]	-1.4%	nt	nt	nt
> C=CCn1c(=S)[nH]c2nc3c(cc2c1=O)COC(C)(C)C3
→ nt	nt	i	i	5.1e-08
> O=C1CC(c2ccncc2)c2cc3c(cc2N1)OCO3 (stereo not drawn)
→ -3%	-0.1%	i	i	1e-09
> Cn1nnnc1SCSc1nnnn1C
→ -1%	0.2%	i	i	1e-09
> COc1ccc2c(c1)[C@]1(C)CCC[C@](C)(CO)[C@@H]1CC2
→ nt	nt	i	i	1e-09
> Cc1nc2nc(SCC(=O)NCc3ccco3)nn2c(C)c1Cc1ccccc1
→ 3%[11.4 µM]	0.1%	i	i	2.9e-08
> COc1cccc(NC(=O)C2C3C=CC4(O3)C2C(=O)N(C(C)C)C4C(=O)NC2CCCCC2C)c1 (stereo not drawn)
→ 2%	2.6%	i	i	3.8e-09
> O=C(CSc1nnc(-c2cnccn2)n1Cc1ccco1)c1ccc2ccccc2c1
→ ?	2.5%	i	i	4.9e-09
> CC(=O)NC1(C(F)(F)F)C(=O)Nc2c1c(=O)[nH]c(=O)n2Cc1ccco1 (stereo not drawn)
→ 6%	1.8%	i	i	1e-09
> Cc1cccc(-n2nnnc2SCc2csc(-c3ccccc3)n2)c1
→ ?	1.1%	i	i	4.2e-09
> CCn1c(SCC(=O)Nc2nc(C)cs2)nnc1C(NC(=O)c1ccccc1Cl)C(C)C (stereo not drawn)
→ 6%	0.8%	i	i	3.1e-08
> CCOc1ccccc1N1CCN(C(=O)c2ccccc2)CC1
→ 7%	0.5%	i	i	2.9e-08
> c1cncc(CNc2nc(N3CCOCC3)nc(N3CCOCC3)n2)c1
→ 0%	-1.8%	nt	nt	nt
> COc1cccc(CNC(=O)c2ccc3nc[nH]c3c2)c1
→ 2%	-1.4%	i	i	7.4e-09
> CCOC(=O)CSc1nnc(CNc2ccccc2Cl)n1-c1ccccc1
→ ?	-2.0%	i	i	1e-09
> CCOC(=O)C1/C(=N\O)CC(C)(O)C(C(=O)OCC)C1c1ccc(N(C)C)cc1 (stereo not drawn)
→ nt	nt	i	i	2.7e-08
> Cc1c(Cl)cccc1Nc1ccccc1C(=O)O
→ 10%[25.6 µM]	-1.8%	i	i	1.9e-08&1e-09

Quoted from the listing.
TSHR ag result of COc1ccc(CNc2nc(-c3ccc(C(=O)N(C)C)cc3)nc3ccccc23)c(OC)c1 → 25µM*
AID923 result of O=C1c2ccccc2-c2c1cccc2C(=O)N1CCN(C(=O)c2ccco2)CC1 → 1.2%

The results go on:
The line under a structure holds: TSHR ag	AID923	Resorufin fluor	A488 fluor	A647 autofl
> CSCC[C@@H](Nc1nc(-c2ccccc2)nc2c1oc1ccccc12)C(=O)O
→ -13%	-6.3%	i	i	8.1e-09
> OC(COc1ccc(Br)cc1)CN1CCOCC1 (stereo not drawn)
→ ?	-2.1%	i	i	1e-08
> COc1ccc(-c2noc(CCC(=O)NCC3CCN(Cc4cccc(C)c4)CC3)n2)cc1
→ ?	-0.4%	i	i	1e-09
> Cc1ccc2c(CN3C(=O)NC(C)(c4ccc5c(c4)OCO5)C3=O)cc(=O)oc2c1 (stereo not drawn)
→ 15%	2.0%	i	i	4.4e-08
> Nc1ncnc(Nc2ccccc2C(F)(F)F)n1
→ -10%	-1.0%	i	i	3.8e-09
> CC12CC(c3ccccc3O1)C(C(=O)NCc1ccccc1)C(=O)N2 (stereo not drawn)
→ 12%	1.1%	i	i	9.6e-09
> O=C(CCN1C(=O)C2C3C=CC(C3)C2C1=O)NCCN1CCCc2ccccc21 (stereo not drawn)
→ -4%	6.0%	i	i	1e-09
> S=c1[nH]nc(-c2cccc(Br)c2)o1
→ 11%	0.0%	i	i	4.3e-09
> CCOC(=O)CN1C(=O)CSc2ccccc21
→ 0%	-2.1%	i	i	2e-09
> COc1ccc(-c2ccccc2C2NC(C(=O)O)CCC2C)cc1 (stereo not drawn)
→ 0%[11.4 µM]	-3.9%[11.5 µM]	nt	nt	nt
> COCCNc1nc(-c2ccc(C(=O)N(C)C)cc2)nc2ccccc12
→ 10%	-0.8%	i	i	1e-09
> CCOc1c(N2CCCCC2)c(=O)c1=O
→ 0%	0.5%	i	i	3.4e-08
> Cc1ccc(NS(=O)(=O)c2cc(C(=O)N3CCN(C)CC3)ccc2C)cc1
→ 7%	-0.1%	i	i	1e-09
> Cc1ccc(CCNC(=O)C2CCN(S(=O)(=O)N3CCC4(CC3)OCCO4)CC2)cc1
→ 2%	0.3%	i	i	1e-09
> O=C(Cn1nnc(-c2ccccc2-n2cnnn2)n1)NCc1ccccc1
→ 1%	-0.6%	i	i	2.8e-08
> Cc1cc2oc(=O)cc(CN3CCC(C)CC3)c2cc1Cl
→ ?	-1.6%	i	i	1.4e-08
> COCCNC(=O)c1snc2ccc(Cl)cc12
→ 3%	-0.5%	i	i	2.2e-08
> Cc1cc(Cl)ccc1OCCCC(=O)N1CCN(C(=O)c2ccco2)CC1
→ ?	0.5%	i	i	2.4e-08
> CC1(C)CC(=O)C(C=Nc2ccccc2C(=O)O)=C(O)C1
→ 2%	-0.8%	i	i	1e-09
> CCc1nc(NC(C)C)c2oc3ccccc3c2n1
→ nt	-0.4%	i	i	2.7e-08
> O=C(C1CCN(S(=O)(=O)c2cccc3cccnc23)CC1)N1CCn2c1nc1ccccc12
→ -3%	-1.4%	nt	nt	nt
> Cn1c(=O)c2c(ncn2CC(=O)Nc2cc(Cl)c(Cl)cc2Cl)n(C)c1=O
→ -6%	-1.1%	i	i	9.5e-09
> CCCCCCn1c(CN2CCN(C)CC2)nc2c1c(=O)n(C)c(=O)n2C
→ -7%	9.2%	nt	nt	nt
> COC(=O)c1ccc(C(/C=C/[C@@H](C)C(=O)NCc2ccc(OC)c(O)c2)NC(=O)OCc2ccccc2)cc1 (stereo partly drawn)
→ 18%	-2.6%	nt	nt	nt
> CC(=O)c1ccc(OCC(O)CN(C)Cc2cccs2)cc1 (stereo not drawn)
→ -8%	2.4%	i	i	1e-09
> Cc1cc(=O)n2[nH]c(C)c(-c3ccccc3)c2n1
→ 5%	5.1%	nt	nt	nt
> O=Cc1ccc(OC2C=CC(c3ccccc3)OC2CO)cc1 (stereo not drawn)
→ 4%[11.4 µM]	0.7%[11.5 µM]	nt	nt	nt
> O=C(c1cnn2c(C(F)(F)F)cc(-c3ccc(Br)cc3)nc12)N1CCOCC1
→ -4%	1.2%	nt	nt	nt
> Cc1ccc(/C=c2\sc3nc(-c4cccs4)nn3c2=O)o1
→ 11%	0.2%	i	i	1e-09
> Cc1cc([N+](=O)[O-])c(C)c(Br)c1C
→ 12%[11.4 µM]	3.4%[11.5 µM]	i	i	1e-09
> COCCCNC(=O)Cn1cc(C(=O)C2CC2)c2ccccc21
→ -1%	-0.2%	i	i	1e-09
> COc1cc(CN2CCN(C(=O)CC(C)C)CC2)cc(OC)c1OC
→ ?	0.3%	nt	nt	nt
> CCOC(=O)NC1CCS(=O)(=O)C1 (stereo not drawn)
→ 0%	1.3%	i	i	1.4e-09
> CCOC(=O)C1CCCN(C(=O)CN2C(=O)C(CC)Oc3ccc(C)cc32)C1 (stereo not drawn)
→ 3%	0.3%	i	i	4.7e-08
> CN(Cc1ccco1)c1ncncc1-c1ccccc1Cl
→ -3%	1.6%	i	i	4.3e-08
> COc1ccc(NS(=O)(=O)c2ccc(NC(=O)C(C)(C(F)(F)F)C(F)(F)F)cc2)nn1
→ 0%	-0.1%	i	i	1.4e-08
> O=C(CN1C(=O)NC2(CCCCCCC2)C1=O)N1CCOCC1
→ 5%	-0.5%	i	i	1.7e-08
> CC(=O)OC1COC(n2ccc3ccccc32)C(OC(C)=O)C1OC(C)=O (stereo not drawn)
→ ?	0.1%	i	i	2.1e-08
> Cc1nnc(Oc2ccccc2F)c2ccccc12
→ 12%[11.4 µM]	-1.0%	i	i	1e-09
> CCn1c(SCC(=O)Nc2cc(C)on2)nc2c(c1=O)SC(C)C2 (stereo not drawn)
→ ?	-0.2%	i	i	3.1e-08
